From PubChem BioAssay
HIV Env fusion – blocks HIV Env-driven cell-cell fusion; AID 651610; inhibition, % at 12.3 µM; actives 1.1% (n = 360,000); HeLa-JRFL Env/CEM21 cell fusion, luciferase;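 active means mean replicate inhibition score of at least 50 and every replicate individually at or above 50; inconclusive means only one of the two criteria met; inactive means mean below 50 and not all replicates reaching 50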;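 further: 0% = plate neutral controls and 100% = maraviroc near 300 nM; one replicate is shown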
Rce1 inhib – inhibitors of yeast Ras-converting enzyme; yeast membranes, quenched prenylated peptide cleavage fluorescence; calls only; actives 0.27% (n = 290,000); AID 2563;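 active means fall in fluorescence gain of 50% or more versus controls, with final raw signal at or below 3038400; inconclusive means same 50% fall but final raw signal above 3038400; inactive means fall in fluorescence gain under 50%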;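 further: plate controls were neutral control wells for no effect and wells lacking membranes for full effect; tested at 10 µM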
MT1-MMP act inh – blocks activation of human MT1-MMP. HT1080 RFP-PRO-GFP cells, GFP/RFP ratio fluorescence, overnight; percent of plate control window, DMSO zero. GFP/RFP ratio change, % at 20 µM. AID 651647. actives 0.061% (n = 360,000);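 active means GFP/RFP ratio change of at least 30% with cell ATP level not reduced by more than half and red fluorescence within 50% of control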; further: strong numbers were not always called active
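Assay system: RFP-PRO-GFP reporter HT1080 cells; read-out basis: GFP/RFP fluorescence ratio; benchmarks: DMSO wells and RFP-L50D-GFP cells; doses: 20 µM single dose, 1% DMSO; schedule: overnight cell settling, then overnight compound exposure, 37 °C, 5% CO2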
PABP polyA inh – PABP-poly(A) binding inhibition; PABP-poly(A) RNA binding, fluorescence polarization; inhibition, % at 35 µM; P11940; actives 1% (n = 290,000);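 active means 50% or more with normal probe brightness, or confirmed in later tests; inconclusive means above 50% with abnormal brightness, or retests that disagree; inactive means below 50% or failed in later tests; about a fifth of its hits are not listed in these tables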;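 further: calls also rest on retests at 20 µM and on dose response follow-up; controls were probe without protein and protein plus probe with vehicle; some compounds called inactive have numbers as strong as hits; many hits fall short of the cut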
Target sequence (P11940 whole entry, looked up): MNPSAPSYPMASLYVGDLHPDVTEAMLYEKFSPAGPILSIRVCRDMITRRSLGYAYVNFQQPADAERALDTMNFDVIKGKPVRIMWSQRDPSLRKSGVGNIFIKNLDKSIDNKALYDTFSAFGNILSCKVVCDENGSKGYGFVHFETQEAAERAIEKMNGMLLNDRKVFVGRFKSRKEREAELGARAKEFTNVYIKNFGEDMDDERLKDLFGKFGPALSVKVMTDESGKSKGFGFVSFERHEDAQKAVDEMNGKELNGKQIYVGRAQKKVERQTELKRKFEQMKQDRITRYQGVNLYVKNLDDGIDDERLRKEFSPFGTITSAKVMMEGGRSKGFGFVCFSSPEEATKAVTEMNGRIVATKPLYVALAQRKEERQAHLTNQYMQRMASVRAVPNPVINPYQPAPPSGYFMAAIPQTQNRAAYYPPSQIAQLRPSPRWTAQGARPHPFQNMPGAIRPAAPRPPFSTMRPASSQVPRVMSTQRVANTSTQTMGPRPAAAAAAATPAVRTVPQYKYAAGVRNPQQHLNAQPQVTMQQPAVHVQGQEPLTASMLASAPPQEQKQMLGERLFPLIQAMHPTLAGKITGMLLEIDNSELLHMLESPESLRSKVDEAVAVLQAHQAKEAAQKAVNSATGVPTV
UUG fidelity – alters start codon recognition fidelity in yeast; S. cerevisiae UUG-firefly luciferase reporter, luminescence/redox ratio; activity score, % at 18.7 µM; actives 0.13% (n = 350,000);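 active means replicate mean at a twofold rise or more, about +100% in these data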;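 further: firefly luciferase made from a UUG start codon reports start codon fidelity; reporter light over untreated wells divided by growth signal over untreated wells; some hits fall short of that in this replicate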
CSC inhib – blocks cancer stem cells. cancer stem cell-like cells viability, luminescence. inhibition, % at 7.5 µM. actives 1.1% (n = 300,000). AID 2717;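 active means mean at 75% or more and at least half the replicates too; inconclusive means mean and replicates disagree; tested in HMLE shEcad cells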;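 further: 0% = median of negative and 100% = median of positive control wells; the first replicate is given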
eIF4H inh – inhibitors of RNA binding by human eIF4H; eIF4H fluorescence polarization binding assay; inhibition, % at 35 µM; actives 0.94% (n = 290,000); Q15056; AID 2012;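 active means 50% or more with normal probe brightness, or confirmed in later tests; inconclusive means above 50% with abnormal brightness, or retests that disagree; inactive means below 50% or failed in later tests; about a fifth of its hits are not listed in these tables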;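 further: calls also rest on retests at 20 µM and on dose response follow-up; 0% = protein and probe with vehicle and 100% = probe without protein; strong numbers were not always called active; many hits fall short of the cut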
MT1-MMP act inh RFP – recorded beside MT1-MMP act inh, whose call it bears; RFP signal change, %; measured here: RFP expression control read;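 0 = vehicle wells; hits needed this value within 50% of zero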
An asterisk follows results filed as active; i = inactive; ? = inconclusive; nt = not tested or not shown; + = active, no number. Hits appear at their usual frequency; 3% or so of the library scored in one or more.

SMILES	HIV Env fusion	Rce1 inhib	MT1-MMP act inh	MT1-MMP act inh RFP	PABP polyA inh	UUG fidelity	CSC inhib	eIF4H inh
CCC1CCCCN1CCCNC(=O)Cn1c2ccccc2c2nc(=O)cc(C)n21 (stereo unspecified)	-8	i	2	5	4	0	1	-14
Cc1cccc(NCc2nnc(-c3ccccc3)o2)c1C	1	i	3	-10	-9	nt	nt	-5
C[C@H]1CN([C@@H](C)CO)C(=O)Cc2cc(NS(=O)(=O)c3cccs3)ccc2O[C@H]1CN(C)S(=O)(=O)c1cn(C)cn1	-7	nt	2	2	nt	-10	8	nt
CCOC(=O)c1sc(NC(=O)c2ccc3ncsc3c2)nc1C	-47	i	4	2	-6	-15	3	-1
COCCNC(=O)C(c1ccc(Cl)cc1)N(CCOC)C(=O)CCC(=O)Nc1ccccn1 (stereo unspecified)	-20	i	-4	-2	0	2	3	1
COc1cc(/C=C2\SC(=O)N(c3ccc(O)cc3)C2=O)cc(OC)c1OC	-2	i	9	-3	0	-1	-3	-9
Cn1cccc1C(=O)NC(=O)COC(=O)CNC(=O)CNC(=O)c1ccc(Cl)cc1Cl	16	i	-1	4	4	nt	0	27
CCC1CCCCN1CCCNC(=O)c1cn(C)c2ccc(S(=O)(=O)N(C)C3CCCCC3)cc2c1=O (stereo unspecified)	-5	i	-5	1	17	-17	3	11
CC(=O)c1ccc(NC(=O)C(C)OC(=O)C2CCN(c3ccc(C(F)(F)F)cn3)CC2)cc1 (stereo unspecified)	19	i	1	-2	nt	7	-12	nt
CCOC(=O)c1c(C2CC2)csc1NC(=O)COC(=O)c1ccc[n+]([O-])c1	nt	i	3	3	3	-5	-8	8
O=C(NC1CCCCC1)c1ccccc1C(F)(F)F	-5	i	1	2	9	nt	-3	1
COc1ccccc1CC(=O)NNC(=O)c1ccc(C(C)(C)C)cc1	i	i	-3	0	-10	0	-4	-8
CCOc1ccc(C(=O)COC(=O)Cc2n[nH]c(=O)c3ccccc23)cc1	4	i	-3	-12	nt	-5	56	nt
COc1ccccc1CNC(=O)Cn1c(=O)oc2cc(S(=O)(=O)N3CCCC3)ccc21	6	i	3	-6	-2	-1	12	2
CCN1CCN(c2nnc(-c3ccccc3)c3ccccc23)CC1	2	i	-3	-1	5	-12	-2	-1
NCCCCC(N)c1cn([C@@H](CCC(=O)O)C(=O)N2CCNCC2)nn1 (stereo partly specified)	24	nt	0	2	nt	14	6	nt
CN(CCCOc1ccccc1F)Cc1ccccc1	-7	i	0	0	11	-15	nt	16
O=C(NCC1CCCO1)C1CC(c2ccc(Cl)c(Cl)c2)=NO1 (stereo unspecified)	8	i	1	-3	3	-12	2	-1
CS(=O)(=O)Nc1ccccc1C(=O)OCC(=O)N1CCC(c2ccccc2)=N1	nt	nt	-1	0	nt	-4	0	nt
O=C(CSc1ccccc1)N1CCCC(N2CCN(c3ccc(F)cc3)CC2)C1 (stereo unspecified)	9	i	2	-7	5	-1	2	-9
Cc1ccc(C(=O)N(CCC2=CCCCC2)c2c(N)n(Cc3ccccc3)c(=O)[nH]c2=O)o1	4	i	-2	-4	nt	8	-7	nt
CC12CN3CC(C)(CN(C1)C3c1ccc(Br)cc1)C2=O (stereo unspecified)	nt	i	1	4	-2	12	2	-4
O=C(NCCc1ccc2c(c1)OCCO2)c1ccccn1	4	i	0	-6	0	-13	10	2
COc1ccc(NC(=O)C2Cc3c(-c4ccc(NC(C)=O)cc4)ccnc3O2)cc1OC (stereo unspecified)	-2	nt	-5	0	nt	-37	nt	nt
COc1ccc(Cl)cc1NC(=S)N1CCN(c2ccccn2)CC1	nt	i	10	-2	-9	nt	6	-3
O=C(N/N=C/c1cccc2nccnc12)c1ccncc1	21	i	2	1	-3	10	21	12
COc1ccc(NC(=O)NCCCN2CCC(Cc3ccccc3)CC2)cc1	4	i	0	1	-4	nt	8	-2
CN1C(=O)/C(=C\c2ccco2)N=C1c1ccc(Cl)cc1Cl	-3	i	-5	-2	3	nt	-5	0
CC(C)CCN1CC(C(=O)NCc2ccccc2)CC1=O (stereo unspecified)	nt	i	0	2	-1	-11	-8	5
COc1ccc(OC(C)C(=O)NCCC2=CCCCC2)cc1 (stereo unspecified)	31	i	3	-1	2	-22	15	-3
CCCCn1c(N)c(N(Cc2ccccc2OC)C(=O)CSCC(=O)Nc2cccc(C)c2)c(=O)[nH]c1=O	nt	i	-2	1	0	15	nt	-5
COC(=O)c1ccc2nc(-c3ccc(OC)c(OC)c3)c(Cc3ccccc3)n2c1	-107	nt	-1	0	nt	5	nt	nt
CC(C)n1c(CN2CCN(C(=O)c3ccco3)CC2)nc2c1c(=O)n(C)c(=O)n2C	10	i	0	-5	-5	9	4	4
O=C(CCSc1ccc(Cl)cc1)NC12CC3CC(CC(C3)C1)C2	24	+	3	-6	1	-13	36	-5
O=C(NC1CCCCC1)C1CCCN(S(=O)(=O)c2cnc[nH]2)C1 (stereo unspecified)	1	i	1	7	-3	-3	-2	5
Nc1c(C(=O)Nc2cccc(C(=O)O)c2)sc2nc3c(cc12)CCCC3	35	+	0	-1	30	-82	nt	7
Cc1cccc(NC(=O)CN2C(=O)N/C(=C/c3cc(C)n(C(C)C)c3C)C2=O)c1	-9	i	-11	4	-2	-9	-23	2
CCN(CC)CCN(Cc1cc2cc3c(cc2[nH]c1=O)OCO3)C(=S)NCC(C)C	-1	i	2	0	-7	-22	-9	17
CCN1CCN(c2ccc(S(=O)(=O)N3CCOCC3)cc2NC(=O)/C=C/c2ccc(OC)cc2OC)CC1	-2	i	1	2	nt	-4	-10	nt
COc1ccccc1-c1c(C)oc2c(CN3CCOCC3)c(O)ccc2c1=O	6	?	-2	2	3	-10	-16	-13

Four entries from above, bar-delimited.
smiles | HIV Env fusion | Rce1 inhib | MT1-MMP act inh | MT1-MMP act inh RFP | PABP polyA inh | UUG fidelity | CSC inhib | eIF4H inh
CS(=O)(=O)Nc1ccccc1C(=O)OCC(=O)N1CCC(c2ccccc2)=N1 | nt | nt | -1 | 0 | nt | -4 | 0 | nt
O=C(CSc1ccccc1)N1CCCC(N2CCN(c3ccc(F)cc3)CC2)C1 (stereo unspecified) | 9 | i | 2 | -7 | 5 | -1 | 2 | -9
Cc1ccc(C(=O)N(CCC2=CCCCC2)c2c(N)n(Cc3ccccc3)c(=O)[nH]c2=O)o1 | 4 | i | -2 | -4 | nt | 8 | -7 | nt
CC12CN3CC(C)(CN(C1)C3c1ccc(Br)cc1)C2=O (stereo unspecified) | nt | i | 1 | 4 | -2 | 12 | 2 | -4

(next part)
SMILES	HIV Env fusion	Rce1 inhib	MT1-MMP act inh	MT1-MMP act inh RFP	PABP polyA inh	UUG fidelity	CSC inhib	eIF4H inh
COc1cc(/C=C/C(=O)O)cc(S(=O)(=O)NC2CC2)c1OC	21	i	4	9	0	-20	-16	1
Nc1c(Cl)cc(C2=NCCn3nc4cc(C(F)(F)F)ccc4c32)cc1Cl	2	+	8	-5	nt	-12	26	nt
CCOC(=O)c1[nH]c2ccccc2c1NC(=O)NC1CCCCC1	nt	i	-5	-11	-1	-10	-3	-6
COc1ccc(Oc2ccc(C(F)(F)F)cc2NC(=O)c2ccc(F)cc2)cc1	11	i	0	-3	-2	-5	55	-3
O=S(=O)(NCCc1ccncc1)c1ccc(F)cc1	-2	i	1	0	-15	-10	1	-1
O=C(O)c1cc(-c2ccc(/C=N/N3C(=O)C4C5C=CC(CC5)C4C3=O)o2)ccc1Cl (stereo unspecified)	-9	i	1	5	22	nt	-4	14
CC(C)CC(C(=O)O)N1C(=O)C2C3CC(C2C1=O)C1C(c2ccccc2)c2sc(=O)[nH]c2SC31 (stereo unspecified)	10	i	-1	3	8	nt	5	2
CCOc1ccc(S(=O)(=O)NCCC(=O)NCC(c2ccc(OC)cc2)N2CCOCC2)cc1 (stereo unspecified)	14	nt	3	4	nt	-7	nt	nt
COc1ccccc1N1CCN(C(=O)c2coc(=O)c(Br)c2)CC1	24	+	-4	-4	-4	-9	13	0
COc1cc(/C=N/NC(=O)c2cccnc2)ccc1OS(=O)(=O)c1ccc(F)cc1	20	i	4	-3	2	-12	nt	11
CC1CCN(Cc2ccc(NC(=O)C3CCN(c4nnc(-n5cccc5)s4)CC3)cc2)CC1	2	i	-3	-3	-8	-18	-5	-9
CNc1cc(CS(=O)c2ccccc2)nc(-c2ccccc2)n1 (stereo unspecified)	nt	i	2	-3	-5	0	nt	-3
O=C(O)c1cccc(S(=O)(=O)NNc2ccccc2C(F)(F)F)c1	-8	i	1	3	10	-17	?	48
CCOc1ccc(-c2nc(C#N)c(N3CCN(Cc4ccccc4)CC3)o2)cc1	5	i	0	-10	-3	-14	24	-2
Cc1cc(C)cc(NC(=O)CCc2ccc(C)o2)c1	-1	i	1	3	nt	-24	8	nt
O=C(Nc1ccc2c(c1)OCCO2)C1CCN(C(=O)c2ccc(Br)cc2)CC1	nt	i	-2	-2	8	-4	-11	-1
Cc1cccc(C(=O)Nc2ccccc2C(=O)OCC(=O)Nc2ccc(C#N)cc2)c1	-16	i	2	6	2	1	nt	6
O=C(COc1ccccc1)Nc1nc2cc3c(cc2s1)OCCO3	-9	i	-1	4	-3	-23	-10	-2
CCN(CC)S(=O)(=O)c1cc(OCC(N)=O)c(C)cc1Cl	3	i	0	0	15	nt	-4	1
CCCC(=O)Oc1ccc(N(C(=O)CCC)S(=O)(=O)c2cccs2)cc1	0	i	-3	0	-8	nt	-7	2
Cn1c(/C(C#N)=C(\O)c2ccccc2Cl)nc2ccccc21	-3	i	-3	-1	nt	nt	12	nt
COC(=O)c1cc(CNC(=O)c2cccc(Cl)c2Cl)ccc1OC	-6	i	nt	nt	-9	nt	-3	-4
Cc1cccc(OCCCn2c(=O)sc3ccccc32)c1	nt	i	-1	-4	-8	-12	-10	-7

6 of the compounds above, in markdown.
| structure | HIV Env fusion | Rce1 inhib | MT1-MMP act inh | MT1-MMP act inh RFP | PABP polyA inh | UUG fidelity | CSC inhib | eIF4H inh |
| --- | --- | --- | --- | --- | --- | --- | --- | --- |
| Cc1cccc(C(=O)Nc2ccccc2C(=O)OCC(=O)Nc2ccc(C#N)cc2)c1 | -16 | i | 2 | 6 | 2 | 1 | nt | 6 |
| O=C(O)c1cccc(S(=O)(=O)NNc2ccccc2C(F)(F)F)c1 | -8 | i | 1 | 3 | 10 | -17 | ? | 48 |
| COC(=O)c1cc(CNC(=O)c2cccc(Cl)c2Cl)ccc1OC | -6 | i | nt | nt | -9 | nt | -3 | -4 |
| CNc1cc(CS(=O)c2ccccc2)nc(-c2ccccc2)n1 (stereo unspecified) | nt | i | 2 | -3 | -5 | 0 | nt | -3 |
| CCN(CC)S(=O)(=O)c1cc(OCC(N)=O)c(C)cc1Cl | 3 | i | 0 | 0 | 15 | nt | -4 | 1 |
| CCOc1ccc(-c2nc(C#N)c(N3CCN(Cc4ccccc4)CC3)o2)cc1 | 5 | i | 0 | -10 | -3 | -14 | 24 | -2 |
